Env fusion inh = HIV envelope-mediated fusion inhibition. HeLa-JRFL Env/CEM21 cell fusion, luciferase. inhibition, % at 12.3 µM. 360,000 compounds, 1.1% hits. AID 651610;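 active = mean replicate inhibition score of at least 50 and every replicate individually at or above 50; inconclusive = only one of the two criteria met; inactive = mean below 50 and not all replicates reaching 50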;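 also: 0% = plate neutral controls and 100% = maraviroc near 300 nM; one replicate is shown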
The depositor's hits bear a star; ? = inconclusive; [ ] = remark or other dose. The list is partial; the hit share may differ from the screen's.

Env fusion inh | mol
18.6[16.7 µM] | CN1C(=O)c2cc(NS(=O)(=O)c3ccc(Cl)cc3)ccc2OC[C@H]2O[C@@H](CC(=O)Nc3ccc4c(c3)COC4)CC[C@@H]21
20.8[16.7 µM] | C[C@H](NC(=O)N(C)C[C@H]1OCc2ccccc2-c2c(n(C)c3ccccc23)C(=O)N([C@H](C)CO)C[C@@H]1C)c1ccccc1
55.1* | COC(=O)C1=C(C)N(Cc2cccc(C(F)(F)F)c2)C(=NCc2ccc(OC)cc2)NC1c1ccccc1 (stereo not drawn)
-15.3[16.7 µM] | C#CCNC(=O)C1=C[C@H](c2ccc(C#C)cc2)C[C@H](OCCCCO)O1
-56.3[16.7 µM] | CC(C)NC(=O)N(C)C[C@@H]1OCCCC[C@H](C)Oc2ccc(N(C)C)cc2C(=O)N([C@@H](C)CO)C[C@@H]1C
13.9[16.7 µM] | O=C(C[C@H]1C[C@@H]2c3cc(NC(=O)Nc4ccccc4F)ccc3O[C@@H]2[C@@H](CO)O1)NCc1ccc2c(c1)OCO2
12.3[16.7 µM] | CCC(=O)N[C@@H]1CC[C@H](CC(=O)NCc2ccccc2F)O[C@H]1CO
-11.2 | COC(=O)C1=C(C)N(Cc2ccccc2C(F)(F)F)C(=NCc2ccccc2C(F)(F)F)NC1c1cccc(F)c1 (stereo not drawn)
-28.5[16.7 µM] | Cc1ccccc1-c1ccc2c(c1)O[C@@H](CN(C)C(=O)Nc1ccc(F)cc1)[C@@H](C)CN([C@H](C)CO)S2(=O)=O
67.5* | COC(=O)[C@]12C[C@H](CC(=O)NCc3ccccc3)C(=O)N(CCC3=CCCCC3)C1=C[C@H](C(C)(C)C)O[C@@H]2C
-0.6[16.7 µM] | O=C(C[C@@H]1CC[C@H]2[C@@H](COC[C@@H](O)CN2C(=O)c2cccnc2)O1)Nc1ccc(-c2ccccc2)cc1
13.8 | CCCCCCCCN1C(=O)[C@@H](CC(=O)NCC2CCCCC2)C[C@@]2(C(=O)OC)C1=C[C@H](C(C)(C)C)O[C@@H]2C
10.7[16.7 µM] | COCC(=O)Nc1ccc2c(c1)C(=O)N(C)C[C@@H](OC)[C@@H](C)CN[C@H](C)CO2
9.4[16.7 µM] | O=C(C[C@H]1CC[C@H](NC(=O)CN2CCOCC2)[C@H](CO)O1)NCc1cccc(F)c1
9.2[16.7 µM] | COCC(=O)Nc1ccc2c(c1)C(=O)N(C)C[C@H](OC)[C@H](C)CN(C(=O)Cc1cccnc1)[C@@H](C)CO2
15.8 | CCOC(=O)CN1C(=O)[C@]2(OCCC=C[C@H]2C)c2cc(OC)ccc21
12.3[16.7 µM] | O=C1[C@@H]2[C@@H](CC(COc3ccccc3)=C([C@H](O)c3ccccc3)[C@@H]2CO)C(=O)N1Cc1ccccc1
-11.5[16.7 µM] | CCCN1[C@@H]2c3ccc(-c4cccnc4)c(=O)n3C[C@@H]2[C@@H](CO)[C@@H]1C(=O)NC1CCC1
7.7[16.7 µM] | C[C@H]1CN([C@@H](C)CO)C(=O)c2ccccc2-c2ccccc2CO[C@H]1CN(C)S(=O)(=O)c1cn(C)cn1
-4.2[16.7 µM] | CCC(=O)N1[C@@H]2Cn3c(ccc(-c4ccncc4)c3=O)[C@H]1[C@@H](C(=O)NC1Cc3ccccc3C1)[C@@H]2CO
-9.6[16.7 µM] | CC(C)NC(=O)N(C)C[C@H]1OCCCC[C@H](C)Oc2ccc(NC(=O)C3CCCCC3)cc2C(=O)N([C@@H](C)CO)C[C@@H]1C
9.0[16.7 µM] | CO[C@@H]1CC[C@H]2CCOc3ccc(C#N)cc3C(=O)N(C)C[C@@H](C)C(=O)N(C)C[C@H]1O2
5.8[16.7 µM] | CN1[C@@H]2c3ccc(C4=CCCCC4)c(=O)n3C[C@H]1[C@H](CO)[C@H]2C(=O)NCc1cc(F)cc(F)c1
-17.3[16.7 µM] | Cc1cccc(CN(C)C[C@@H]2OCc3cn(nn3)CCCC(=O)N([C@H](C)CO)C[C@@H]2C)c1
-10.9[16.7 µM] | COCC(=O)Nc1ccc2c(c1)OC[C@H](C)N(C(=O)c1ccccn1)C[C@@H](C)[C@H](OC)CN(C)C2=O
16.3[16.7 µM] | CC(=O)Nc1ccc2c(c1)C(=O)N(C)[C@@H]1CC[C@H](CC(=O)Nc3cn(C)nc3C)O[C@@H]1CO2
19.8 | O=[N+]([O-])c1ccc(COc2ccccc2CO)cc1
34.2 | COC(=O)C1=C(C)N(Cc2ccc(F)cc2)C(=S)NC1c1cccc(Cl)c1 (stereo not drawn)
-27.4 | CCc1c(-c2ccc(F)cc2)ncn1CCc1ccccc1OC
-11.9[16.7 µM] | CCC(=O)Nc1ccc2c(c1)OC[C@H](C)N(C(=O)COC)C[C@@H](C)[C@@H](OC)CN(C)C2=O
-1.3[16.7 µM] | Cc1ccc(S(=O)(=O)Nc2ccc3c(c2)C(=O)N(C)[C@@H]2CC[C@H](CC(=O)NCCc4ccncc4)O[C@H]2CO3)cc1
22.9 | CCCCCN(C(=O)CCc1cn(CCCCC)c2ccccc12)c1ccc(N(C)c2ccccn2)cc1
4.0[16.7 µM] | CO[C@H]1CN(C)C(=O)c2ccc(NC(=O)NC(C)C)cc2OC[C@@H](C)N(C)C[C@H]1C
-1.6[16.7 µM] | COc1ccc(NC(=O)Nc2ccc3c(c2)CC(=O)N([C@@H](C)CO)C[C@H](C)[C@@H](CN(C)S(=O)(=O)c2ccccc2)O3)cc1
19.2 | C=CCN1[C@@H](C)[C@H](c2ccccc2)Oc2cccc(NCCc3ccccc3)c2S1(=O)=O
10.3[16.7 µM] | O=C(C[C@@H]1CC[C@@H](NS(=O)(=O)c2ccc(F)cc2)[C@H](CO)O1)NCc1ccc(Cl)c(Cl)c1
12.2[16.7 µM] | CO[C@H]1CN(C)C(=O)c2ccc(NS(C)(=O)=O)cc2OC[C@H](C)N(CC2CCCCC2)C[C@H]1C
-1.3[16.7 µM] | C[C@H]1CN([C@@H](C)CO)S(=O)(=O)c2ccc(C3=CCCC3)cc2O[C@H]1CN(C)C(=O)C1CC1
3.6[16.7 µM] | C[C@H]1CN([C@@H](C)CO)C(=O)Cc2cc(NS(=O)(=O)c3cn(C)cn3)ccc2O[C@H]1CN(C)C(=O)Nc1ccc(C(F)(F)F)cc1
-1.5[16.7 µM] | O=C(NCCN1CCCC1)[C@H]1[C@H](CO)[C@H]2Cn3c(cccc3=O)[C@@H]1N2C(=O)c1ccccc1
-3.6[16.7 µM] | O=C(C[C@H]1C[C@@H]2c3cc(NC(=O)c4ccc5c(c4)OCO5)ccc3O[C@@H]2[C@H](CO)O1)NCC(F)(F)F
69.5*[16.7 µM] | COc1cccc(S(=O)(=O)N(C)C[C@H]2Oc3cc(C4=CCCCC4)ccc3S(=O)(=O)N([C@H](C)CO)C[C@H]2C)c1
-40.1 | COC(=O)C1=C(C)N(Cc2ccc(C(F)(F)F)cc2)C(=NCc2ccccc2C(F)(F)F)NC1c1ccc(Cl)cc1 (stereo not drawn)
6.5[16.7 µM] | CO[C@@H]1CN(C)C(=O)c2cc(NC(=O)C3CCCCC3)ccc2OC[C@@H](C)N(Cc2nccs2)C[C@H]1C
22.4[16.7 µM] | C[C@@H]1CN([C@H](C)CO)C(=O)c2cccc(NC(=O)C3CCOCC3)c2O[C@H]1CN(C)C(=O)Nc1ccc2c(c1)OCO2
-6.5[16.7 µM] | C[C@@H]1CN([C@@H](C)CO)C(=O)c2cccc(NC(=O)CCCCCC(=O)Nc3ccccc3N)c2O[C@@H]1CN(C)S(=O)(=O)c1ccc(Cl)cc1
6.3[16.7 µM] | CN1C(=O)c2cc(NS(C)(=O)=O)ccc2OC[C@H]2O[C@@H](CC(=O)N3CCOCC3)CC[C@@H]21
17.3[16.7 µM] | CCN1[C@@H]2Cn3c(ccc(-c4ccncc4)c3=O)[C@H]1[C@@H](C(=O)Nc1ccccc1)[C@@H]2CO
? | Cc1ccccc1-c1cccc2c3c([nH]c12)[C@@H]1C[C@H]2[C@@H](C(=O)N1CC3)[C@H](C)ON2C
16.0[16.7 µM] | O=C(C[C@H]1CC[C@H](NC(=O)Nc2ccc(C(F)(F)F)cc2)[C@@H](CO)O1)NCc1cc(F)cc(F)c1
2.9[16.7 µM] | O=C(Cc1ccccn1)N[C@@H]1CC[C@@H](CCn2cc(-c3ccccc3)nn2)O[C@@H]1CO
-5.6[16.7 µM] | CN(C)C(=O)C[C@@H]1CC[C@H]2[C@@H](COC[C@@H](O)CN2Cc2ccc(C(F)(F)F)cc2)O1
-10.8[16.7 µM] | CCCNC(=O)Nc1ccc2c(c1)C(=O)N(C)C[C@H](OC)[C@H](C)CN[C@H](C)CO2
-15.7[16.7 µM] | O=C(Nc1ccc2c(c1)[C@@H]1C[C@H](CC(=O)N3CCCCC3)O[C@H](CO)[C@@H]1O2)Nc1ccccc1F
4.3 | Brc1ccccc1C1Cc2nnccc2CN1 (stereo not drawn)
19.4[16.7 µM] | O=C(C[C@H]1C[C@@H]2c3cc(NC(=O)Nc4ccc(C(F)(F)F)cc4)ccc3O[C@@H]2[C@@H](CO)O1)NCc1cccnc1
10.4[16.7 µM] | COCC(=O)N1C[C@@H](C)[C@H](OC)CN(C)C(=O)c2cc(NC(=O)C3CCC3)ccc2OC[C@@H]1C
21.4[16.7 µM] | CN1C(=O)c2cc(NC(=O)C3CCOCC3)ccc2OC[C@H]2O[C@@H](CC(=O)NCC3CCCCC3)CC[C@H]21
-34.8[16.7 µM] | CN1c2ccc(-c3cccc(C#N)c3)cc2[C@H]2[C@H](CCN2C(=O)C2CC2)[C@@H]1CO
25.5[16.7 µM] | CC(C)[C@H](C)NC(=O)N(C)C[C@@H]1OCc2ccccc2-c2ccccc2C(=O)N([C@H](C)CO)C[C@@H]1C

(next part)
Env fusion inh | mol
-5.4[16.7 µM] | O=C(c1cccnc1)N1CC2(C1)[C@@H](c1ccccc1)[C@@H](CO)N2Cc1cccnc1
-3.8[16.7 µM] | CCS(=O)(=O)Nc1ccc2c(c1)C(=O)N(C)C[C@@H](OC)[C@@H](C)CN(CC1CCCC1)[C@@H](C)CO2
3.4 | COC(=O)C1=C(C)N(Cc2ccc(Br)cc2)C(=S)NC1c1ccccc1 (stereo not drawn)
-17.1 | CC(C)[C@@H]1NC(=O)[C@@H]2CSCCS(=O)(=O)N2C1=O
-46.4 | COc1ccc2cc(/C=N/NC(=O)CN(c3ccccc3OC)S(=O)(=O)c3ccccc3)c(Cl)nc2c1
9.4[16.7 µM] | O=C(C[C@H]1CC[C@H]2[C@@H](COC[C@@H](O)CN2C(=O)Nc2cc(Cl)cc(Cl)c2)O1)N1CCOCC1
-2.4[16.7 µM] | CCCN1C[C@@H](C)[C@H](OC)CN(C)C(=O)c2ccc(NS(=O)(=O)c3cn(C)cn3)cc2OC[C@@H]1C
-24.9[16.7 µM] | Cn1cnc(S(=O)(=O)NC[C@H]2CC[C@H]3[C@H](CN3Cc3nccs3)O2)c1
-3.3[16.7 µM] | C/C=C/c1ccc([C@@H]2[C@H](CO)N(C(=O)C3CC3)C23CN(S(=O)(=O)CC)C3)cc1
-6.4[16.7 µM] | COc1cccc(C(=O)Nc2ccc3c(c2)C(=O)N(C)C[C@@H](OC)[C@@H](C)CN[C@@H](C)CO3)c1
3.1[16.7 µM] | COCC(=O)N[C@H]1C=C[C@@H](CC(=O)NCc2ccc(Cl)cc2)O[C@@H]1CO
-29.9[16.7 µM] | CC(C)[C@@H]1COCc2cn(nn2)CC[C@H](C)C(=O)N1
-5.9[16.7 µM] | O=C(C[C@@H]1C[C@@H]2c3cc(NC(=O)c4ccc5c(c4)OCO5)ccc3O[C@@H]2[C@H](CO)O1)NCc1ccccn1
-50.2[16.7 µM] | CCNC(=O)[C@H]1[C@H](CO)[C@H]2Cn3c(ccc(-c4ccccc4)c3=O)[C@H]2N1CC
-22.0 | O=C(c1ccccc1Cl)N1CCSCCS1(=O)=O
31.7[16.7 µM] | CO[C@H]1CN(C)C(=O)c2ccc(NC(=O)Nc3cc(Cl)cc(Cl)c3)cc2OC[C@H](C)NC[C@H]1C
10.8[16.7 µM] | CN1C(=O)c2cc(NC(=O)C3CCCCC3)ccc2OC[C@@H]2O[C@H](CC(=O)NCc3ccccc3F)CC[C@H]21
11.8[16.7 µM] | C[C@@H]1CN([C@@H](C)CO)C(=O)c2cc(C3=CCCC3)cnc2O[C@@H]1CN(C)C(=O)c1ccc2c(c1)OCO2
17.1[16.7 µM] | O=C(NCC[C@@H]1CC[C@@H](NC(=O)C2CCOCC2)[C@H](CO)O1)c1cc(Cl)cc(Cl)c1
17.1[16.7 µM] | C[C@H](CO)N1C[C@H](C)[C@@H](CN(C)Cc2ccc3c(c2)OCCO3)OCc2cn(nn2)CCCC1=O
-0.1[16.7 µM] | CO[C@H]1CN(C)C(=O)c2cc(NC(=O)C3CC3)ccc2OC[C@@H](C)N(CCc2ccccc2)C[C@H]1C
2.2 | Cc1ccc(C2c3c(-c4ccccc4)n[nH]c3C(=O)N2c2ccccc2)cc1 (stereo not drawn)
0.4[16.7 µM] | CCCNC(=O)N[C@@H]1C=C[C@H](CC(=O)NCCc2ccccc2)O[C@H]1CO
6.3 | COc1ccc(-c2ccc3c(n2)CCCN3S(=O)(=O)c2cccs2)cc1

Quoted at random: 6 compounds from above.
Env fusion inh | mol
-28.5[16.7 µM] | Cc1ccccc1-c1ccc2c(c1)O[C@@H](CN(C)C(=O)Nc1ccc(F)cc1)[C@@H](C)CN([C@H](C)CO)S2(=O)=O
-3.8[16.7 µM] | CCS(=O)(=O)Nc1ccc2c(c1)C(=O)N(C)C[C@@H](OC)[C@@H](C)CN(CC1CCCC1)[C@@H](C)CO2
-11.9[16.7 µM] | CCC(=O)Nc1ccc2c(c1)OC[C@H](C)N(C(=O)COC)C[C@@H](C)[C@@H](OC)CN(C)C2=O
10.7[16.7 µM] | COCC(=O)Nc1ccc2c(c1)C(=O)N(C)C[C@@H](OC)[C@@H](C)CN[C@H](C)CO2
-56.3[16.7 µM] | CC(C)NC(=O)N(C)C[C@@H]1OCCCC[C@H](C)Oc2ccc(N(C)C)cc2C(=O)N([C@@H](C)CO)C[C@@H]1C
17.1[16.7 µM] | O=C(NCC[C@@H]1CC[C@@H](NC(=O)C2CCOCC2)[C@H](CO)O1)c1cc(Cl)cc(Cl)c1

High-throughput results as filed in PubChem BioAssay.
